2A StopGo = High Throughput Screening for Foot and Mouth Disease Virus Antivirals; human cells with a luciferase reporter of 2A StopGo recoding; control for the full effect not named in the record; Potency, µM (titrated, usually from 57.9 µM), for inactives: at the highest dose signal change, negative = less light; 410,000 tested, 1.2% active; AID 1159524, 2015; active = well fitted falling curve with a large enough effect; inconclusive = small, poorly fitted or top-dose-only effect; inactive = no such curve, though single readings can be large or run the other way; tested in HEK293T cells; note: % is set by controls: 0 for no effect and ±100 for the full control effect; nearly all actives have a fitted effect of over 45% in size; luciferase light after 4 h
RE007 growth inh = qHTS Assay for Inhibitors of the HIV-1 protein Vpr | S. pombe RE007 Vpr strain, BacTiter-Glo ATP luminescence, 24 h; control for the full effect not named in the record | Potency, µM (top dose mostly 92.2 µM), for inactives: at the highest dose activity change, negative = less growth | 360,000 tested, 0.21% active; active = well fitted falling curve with a large enough effect; inconclusive = small, poorly fitted or top-dose-only effect; inactive = no such curve, though single readings can be large or run the other way;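 note: % is set by controls: 0 for no effect and ±100 for the full control effect; nearly all actives have a fitted effect of over 50% in size; the assay follows cell death caused by Vpr and the record does not say whether a fall means rescue or toxicity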
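Fission yeast strain RE007, carrying one chromosomally integrated HIV-1 vpr copy, was seeded at OD 0.01 in PMG+AL medium with 23 nL pinned compound. After 24 h at 30 °C and 99% humidity, viability was read by BacTiter-Glo luminescence.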
SARS PLpro yeast = qHTS of Yeast-based Assay for SARS-CoV PLP; S. cerevisiae expressing SARS-CoV PLpro, growth rescue; control for the full effect not named in the record; Potency, µM (top dose mostly 32.9 µM), for the others: at the highest dose activity, positive = growth rescue; 330,000 tested, 0.19% active; AID 485353, 2010; note: 0% is about no effect; nearly all actives have a fitted effect of over 55% in size; growth read by luminescence after 48 h
Cruzain inh noDet = qHTS Assay for Promiscuous and Specific Inhibitors of Cruzain (without detergent); Cruzipain (Trypanosoma cruzi), P25779; purified cruzain, Z-FR-AMC fluorescence, no detergent; Potency, µM, for the others: max response, negative = inhibition, hits mostly inhibitors; 200,000 tested, 2.3% active; AID 1476, 2009; active = well fitted curve in the direction sought with a large enough effect; inconclusive = small, poorly fitted or top-dose-only effect, or another doubt; inactive = no such curve, though single readings can be large; an effect the other way counts as inactive or inconclusive;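 note: plate controls were enzyme without inhibitor for no effect and buffer without enzyme for full effect; nearly all actives have a fitted effect of over 40% in size; top concentration of the series not given in the record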
Target sequence (P25779 123-467 limits assumed): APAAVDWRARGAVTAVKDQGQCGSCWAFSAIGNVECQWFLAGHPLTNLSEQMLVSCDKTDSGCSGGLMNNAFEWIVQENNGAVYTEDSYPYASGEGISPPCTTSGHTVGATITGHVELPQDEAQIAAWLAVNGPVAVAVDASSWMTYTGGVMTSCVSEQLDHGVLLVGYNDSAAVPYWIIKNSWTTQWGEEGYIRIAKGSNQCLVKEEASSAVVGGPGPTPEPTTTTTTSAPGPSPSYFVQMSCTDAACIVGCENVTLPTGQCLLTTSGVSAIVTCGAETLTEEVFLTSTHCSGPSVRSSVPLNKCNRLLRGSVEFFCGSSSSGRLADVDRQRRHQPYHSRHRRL
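Purified cruzain at 1.5 nM, pre-incubated 15 min with compound at room temperature in 100 mM sodium acetate pH 5.5, 5 mM DTT, 0.00005% Triton X-100. Reaction started with 2 uM Z-FR-AMC; AMC fluorescence increase over 60 s gives rate.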
MARV entry inh = qHTS for inhibitors of binding or entry into cells for Marburg Virus; 300,000 tested, 1.8% active; Marburg virus pseudotyped entry inhibition, cell reporter; control for the full effect not named in the record; about a third of the inactives were read at about 46 µM; AID 540276, 2011; Potency, µM (doses to about 37.8 µM), inactives show top-dose activity change, negative = inhibition, most hits filed as inhibitors; active = well fitted inhibition curve with a large enough effect; inconclusive = small, poorly fitted or top-dose-only effect, or effect the other way; inactive = flat fitted curve, though single readings scatter; tested in HEK293 cells; about a fifth of its hits are not listed in these tables; note: % is set by controls: 0 for no effect and ±100 for the full control effect; luciferase read-out
Lassa entry inh = qHTS for Inhibitors of binding or entry into cells for Lassa Virus | 300,000 tested, 1.2% active | Potency, µM (series often up to 37.9 µM), without a hit: top-dose activity change, negative = inhibition, hits mostly inhibitors | Lassa virus pseudotype entry inhibition, cell reporter; control for the full effect not named in the record; active means well fitted inhibition curve with a large enough effect; inconclusive means small, poorly fitted or top-dose-only effect, or effect the other way; inactive means flat fitted curve, though single readings scatter; tested in HEK293 cells; note: % is set by controls: 0 for no effect and ±100 for the full control effect; nearly all actives have a fitted effect of over 50% in size; luciferase read-out
Cruzain inh Det = qHTS Assay for Promiscuous and Specific Inhibitors of Cruzain (with detergent). Cruzipain (Trypanosoma cruzi), P25779. purified cruzain, Z-FR-AMC fluorescence, 0.01% Triton. Potency, µM, for the others: max response, negative = inhibition, hits mostly inhibitors. 200,000 tested, 0.43% active. AID 1478, 2009; active = well fitted curve in the direction sought with a large enough effect; inconclusive = small, poorly fitted or top-dose-only effect, or another doubt; inactive = no such curve, though single readings can be large; an effect the other way counts as inactive or inconclusive;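 note: plate controls were neutral wells for no effect and buffer without enzyme for full effect; nearly all actives have a fitted effect of over 40% in size; top concentration of the series not given in the record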
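In this qHTS format, compounds are incubated with 1.5 nM cruzain for 15 min at room temperature before 2 uM Z-FR-AMC is added. Release of AMC is followed at 360/450 nm, and progress is taken as the 60 s fluorescence difference.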
NS1 function inh = qHTS Assay for Inhibitors of Influenza NS1 Protein Function; S. cerevisiae slowed by influenza A NS1, growth recovery by OD600; Potency, µM (titrated, usually from 46.1 µM), inactives show top-dose activity, positive = more growth; 270,000 tested, 0.4% active; AID 2326, 2010; note: actives are rising curves; nearly all actives have a fitted effect of over 50% in size
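Growth recovery, yeast-based: influenza A NS1 expressed in S. cerevisiae causes slow growth, and suppressors are detected by OD600. The parent strain without NS1 is used as positive control.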
Numbers without * were called inactive; ? = inconclusive; . = not tested or not shown; & = joins results of further samples; [ ] = remark or other dose. Unless noted, calls come from the whole dose curve; as a rule, active means well fitted rising curve with a large enough effect; inconclusive means small, poorly fitted or top-dose-only effect; inactive means no such curve, though single readings can be large or run the other way. Potency is the fitted concentration of half-maximal effect.

| SMILES | 2A StopGo | RE007 growth inh | SARS PLpro yeast | Cruzain inh noDet | MARV entry inh | Lassa entry inh | Cruzain inh Det | NS1 function inh |
| --- | --- | --- | --- | --- | --- | --- | --- | --- |
| CCC1=Nc2cc(C(=O)N3CCC4(CC3)OCCO4)ccc2Sc2ccc(C)cc21 | 4% | 2% | -2% | . | . | . | . | -27% |
| COc1ccc(Cl)cc1N(CC(=O)N1CCCC1)S(C)(=O)=O | 9% | 3% | -3% | . | ? | 7%[46.1 µM] | . | 1% |
| CCn1c(C)cc(C(=O)CN2C(=O)c3ccccc3S2(=O)=O)c1C | ? | 6% | -4% | . | ? | 1.4µM* | . | . |
| CC12C=CC(=O)C=C1CCC1C3CCC(O)(C(=O)CO)C3(C)CC(O)C12F (stereo not drawn) | -15% | 3% | . | . | 22% | 21% | . | . |
| Cc1ccc(C)c(NC(=O)CN(C)C(=O)c2cc([N+](=O)[O-])ccc2N2CCOCC2)c1 | -15% | 0% | -1% | . | ? | 17% | . | . |
| COc1ccc(CNC(=O)c2cnn(-c3ccc(OC)cc3)c2C2CCN(C(=O)OC(C)(C)C)CC2)cc1 | 4% | . | . | ? | . | ? | -11% | . |
| N#C/C(=C\c1ccc(Cl)cc1)C(=O)Nc1cccnc1 | -8% | -24% | 1% | . | 0%[46.1 µM] | ? | . | 0% |
| CC(=O)Nc1ccc(NC(=O)C2CCN(c3c(Cc4ccccc4)c(C)nc4ncnn34)CC2)cc1 | -20% | -7% | . | . | 4% | -11% | . | . |
| CC(C)CN1CCN=C1Nc1ccccc1 | -8% | -6% | 4% | . | . | . | . | 10% |
| CCOc1ccc2nc(SCC(=O)N3CCCCCC3)c(C#N)cc2c1 | 37%[activator] | 8% | -2% | -4% | ? | -21% | -2.2% | -24% |
| O=C(NC1C2CC3CC(C2)CC1C3)C1CCCCC1 (stereo not drawn) | 3% | 5% | -1% | . | 0% | 13% | . | -9% |
| Nc1nc(-c2ccc(Cl)cc2)nnc1-c1ccc(Br)cc1 | 12% | -18% | -2% | . | ? | 9%[46.1 µM] | . | -3% |
| Cc1ccc(OCC(=O)Nc2ccc3nc(SCC(=O)N(C)c4ccccc4)sc3c2)cc1 | ? | . | . | ? | ? | 4%[46.1 µM] | -2.8% | . |
| COc1ccc(NS(=O)(=O)c2c(C)cc(C)cc2C)cc1 | 34%[activator] | 4% | -16% | 2% | ? | -19% | -5.2% | -59% |
| Cc1ccccc1N1C(=O)C(Oc2ccc(Cl)cc2)C1CNCCCOC(C)C (stereo not drawn) | -23% | 2% | -16% | 10% | ? | ? | 0.1% | -27% |
| COc1ccccc1CNC(=O)C1CC(c2ccccc2F)=NO1 (stereo not drawn) | 20% | -2% | -3% | . | . | . | . | -34% |
| CC(C)Cn1c(N)c(C(=O)COC(=O)c2cnccn2)c(=O)n(C)c1=O | -30% | 12% | . | . | -11%[46.1 µM] | 11% | . | . |
| CC(C)N(C(=O)CS(=O)(=O)c1ccc(Cl)c(Cl)c1)C(C)C | 1% | 2% | 0% | . | 0%[46.1 µM] | -27% | . | -4% |
| CCOc1ccccc1NS(=O)(=O)c1csc(C(N)=O)c1 | 57%[activator] | 10% | 1% | . | -19% | ? | . | 1% |
| COc1ccc(/C=C/C2=CCN(Cc3ccc(OC)cc3)CC2)cc1 | -7% | 2% | -2% | . | 4.5µM* | -16%[46.1 µM] | . | . |
| CCOC(=O)C1CCN(S(=O)(=O)c2ccc3[nH]c4c(c3c2)CCCC4)CC1 | -11% | 2% | 15% | . | 16%[46.1 µM] | ? | . | -2% |
| Cc1ccc(C(=O)NCCc2ccc(S(N)(=O)=O)cc2)cc1-n1cnc2cccnc21 | -2% | . | . | -2% | . | 23%[46.1 µM] | -4.1% | . |
| O=C(NCc1cccnc1)NC1CCCCC1 | . | -8% | . | -4% | ? | 19% | 1.2% | -4% |
| COc1ccc(C)cc1NC(=O)CSc1nnc(CC(=O)Nc2ccccc2C)n1C | -12% | -8% | 8% | 6% | -13% | -7% | 0.1% | 3% |
| O=C(CN1C(=O)NC2(CCc3ccccc32)C1=O)Nc1cccc(Cl)c1 (stereo not drawn) | -11% | -19% | -18% | . | 18% | -1% | . | . |
| CCOc1ccc(NC(=O)c2cnc3ccccn3c2=O)cc1 | 49%[activator] | . | . | -2% | 14%[46.1 µM] | . | -0.1% | . |
| COc1ccc(CCNC(=O)CCSCc2ccccc2F)cc1OC | -12% | -16% | 0% | . | . | . | . | -6% |
| CCOc1ccc(NC(=O)C(c2ccccn2)N(C(=O)CCl)c2ccc(OCC)cc2)cc1 (stereo not drawn) | 16% | -5% | 14% | 0% | ? | -4% | -1.5% | 23% |
| CC(C)CCn1c(=O)c2sccc2n2c(CCCC(=O)NCc3ccc(F)cc3)nnc12 | -20% | . | . | -5% | . | 1%[46.1 µM] | 0.5% | . |
| O=C(c1ccccc1C(=O)N1CCN(c2ccccc2F)CC1)N1CCN(c2ccccc2F)CC1 | -24% | 42% | 1% | ? | -1%&-1% | -5% | -0.1% | -19% |
| CCOC(=O)c1cnc(SC)nc1Sc1ccc(Cl)cc1Cl | -28% | 4% | 6% | -14% | -17% | 4% | -5.4% | 8% |
| O=C(CCN1C(=O)/C(=C/c2ccccc2)SC1=S)NNC(=O)c1ccncc1 | -18% | -5% | -1% | . | -19%[46.1 µM] | 29%[46.1 µM] | . | . |
| CCOC(=O)c1cnc2ccc(C(=O)OC)cc2c1NCCCN1CCOCC1 | -3% | -8% | 9% | . | 2% | ? | . | -7% |
| CCOc1ccc(N(CC(=O)Nc2ccc(C)cc2C)S(C)(=O)=O)cc1 | 5% | -1% | 1% | . | . | . | . | 3% |
| COc1ccc(NC(=O)CSc2nc3ccccc3c(=O)n2CCCN2CCC(C)CC2)c(OC)c1 | -20% | 12% | -4% | . | ? | ? | . | . |
| COc1ccc(C2C(C(=O)N3CCN(c4ccccn4)CC3)CC(=O)N2c2ccc(OC)cc2)cc1 (stereo not drawn) | 0% | -4% | 30% | ? | ? | 10% | 0.8% | -20% |
| O=C(CN1CCN(c2ccc(Cl)cc2)CC1)Nc1ccc(Cl)c(C(F)(F)F)c1 | -22% | . | . | 3% | . | 1%[46.1 µM] | -10% | . |
| COc1cc(/C=N/NC(=O)c2cccc(NC(=O)c3ccccc3C)c2)ccc1O | -17% | 5% | -3% | . | -26%[46.1 µM] | -3%[46.1 µM] | . | 6% |
| CC1CCCN(Cc2nc3c(c(=O)n(C)c(=O)n3C)n2Cc2ccc(Cl)cc2)C1 (stereo not drawn) | -17% | . | . | 3% | -3%[46.1 µM] | 10%[46.1 µM] | 1.3% | . |
| CCCCOc1ccc(/C=C/C2=CC(C)(C)NC(=S)N2)cc1OCC | -5% | 30% | -3% | . | 10% | -10% | . | . |
| Cn1ccnc1C(=O)c1ccc(S(=O)(=O)N2CCCC2)cc1 | 19% | -8% | -2% | . | -8%[46.1 µM] | 6% | . | 9% |
| Cc1c(NC(=O)c2cccs2)cccc1-c1nc2ccccc2s1 | -4% | -13% | -49% | 4% | -4% | 1% | -3.4% | -4% |
| CN1CCC(OC(=O)Cc2ccc(Cl)cc2)CC1 | 11% | -14% | -1% | . | . | . | . | 3% |
| CCC(C)(C)c1nnc(NC(=O)C2CC(=O)N(CCc3ccc(F)cc3)C2)s1 (stereo not drawn) | -15% | 40% | -2% | . | 8%[46.1 µM] | -16% | . | -1% |
| Cc1ccc(S(=O)(=O)N(CC(=O)N2CCc3ccccc3C2)c2cccc(Cl)c2)cc1 | 7% | -8% | 3% | ? | ? | 14µM* | 2.2% | 3% |
| CC(=O)Nc1ccc(S(=O)(=O)N2CCC(c3nc4ccc(C)cc4[nH]3)CC2)cc1 | -18% | -20% | ? | 10% | -13% | 12%[14.3 µM] | 1.3% | -18% |
| COc1cccc(N2CCN(C(=S)Nc3cc(C)cc(C)c3)CC2)c1 | -3% | -17% | -1% | . | -22%[46.1 µM] | ? | . | -1% |
| COc1ccc(C(=O)Nc2cccc(-c3cn4ccsc4n3)c2)c(OC)c1 | 17% | . | . | ? | . | ? | -5.7% | . |
| COc1ccc(OCCSc2ncc(CO)n2C)cc1 | 23% | 3% | -1% | . | ? | -9%[46.1 µM] | . | 4% |
| CN1CCC(N(C)S(=O)(=O)c2ccc(NC(=O)c3ccc(S(=O)(=O)N(C)C)cc3)cc2)CC1 | -14% | 4% | -1% | . | ? | ? | . | . |
| S=C(c1ccc2c(c1)OCO2)N1CCCC1 | 20% | -7% | 5% | 3% | ? | 2% | -3.3% | -5% |
| CN1CN(C)c2cccc3cccc1c23 | -21% | -27% | 2% | ? | -2% | 3% | -9.5% | 19% |
| O=C(NC(NC1CCS(=O)(=O)C1)C(=O)c1ccccc1)c1ccc(Cl)cc1 (stereo not drawn) | . | 15% | 3% | 2% | 0% | -1% | 2.8% | -4% |
| Cc1c(CNC(C)c2ccccc2)c(C(=O)O)c(C)n1Cc1c(F)cccc1Cl (stereo not drawn) | -15% | . | . | 1% | 2%[46.1 µM] | -15%[46.1 µM] | -1.3% | . |
| N#CCCn1cc(/C=N/O)c(-c2ccc(-c3ccccc3)cc2)n1 | -9% | 8% | -1% | 4% | ? | -24% | -10% | -16% |
| CCn1c(SCC(=O)Nc2ccc(Cl)cc2)nnc1C1CC1 | -5% | 24% | -5% | 9% | 10% | 0% | 0.6% | -29% |
| CN(C(=O)CN1C(=O)c2ccccc2S1(=O)=O)c1ccccc1C(=O)O | 16% | 11% | 0% | -13% | 8% | 7% | 1.3% | 7% |
| O=C1C2C3C=CC(CO)(O3)C2C(=O)N1c1ccccc1-c1ccccc1 (stereo not drawn) | . | 13µM* | -20% | -6% | 2% | -19% | 0.5% | -73% |
| O=C(CSc1nc(Nc2ccccc2)nc(N2CCOCC2)n1)Nc1ccc(Br)cc1F | 0% | -1% | -1% | . | . | . | . | 3% |
